PABP polyA inh – PABP poly(A) RNA binding inhibitors, primary screen, biochemical, fluorescence polarization, uHTS; AID 2014, 2009; inhibition, % at 35 µM; 290,000 tested, 1% active;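 active = 50% or more with normal probe brightness, or confirmed in later tests; inconclusive = above 50% with abnormal brightness, or retests that disagree; inactive = below 50% or failed in later tests; about a fifth of its hits are not listed in these tables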;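 note: calls also rest on retests at 20 µM and on dose response follow-up; controls were probe without protein and protein plus probe with vehicle; some compounds called inactive have numbers as strong as hits; many hits fall short of the cut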
Target sequence (P11940 whole entry, looked up): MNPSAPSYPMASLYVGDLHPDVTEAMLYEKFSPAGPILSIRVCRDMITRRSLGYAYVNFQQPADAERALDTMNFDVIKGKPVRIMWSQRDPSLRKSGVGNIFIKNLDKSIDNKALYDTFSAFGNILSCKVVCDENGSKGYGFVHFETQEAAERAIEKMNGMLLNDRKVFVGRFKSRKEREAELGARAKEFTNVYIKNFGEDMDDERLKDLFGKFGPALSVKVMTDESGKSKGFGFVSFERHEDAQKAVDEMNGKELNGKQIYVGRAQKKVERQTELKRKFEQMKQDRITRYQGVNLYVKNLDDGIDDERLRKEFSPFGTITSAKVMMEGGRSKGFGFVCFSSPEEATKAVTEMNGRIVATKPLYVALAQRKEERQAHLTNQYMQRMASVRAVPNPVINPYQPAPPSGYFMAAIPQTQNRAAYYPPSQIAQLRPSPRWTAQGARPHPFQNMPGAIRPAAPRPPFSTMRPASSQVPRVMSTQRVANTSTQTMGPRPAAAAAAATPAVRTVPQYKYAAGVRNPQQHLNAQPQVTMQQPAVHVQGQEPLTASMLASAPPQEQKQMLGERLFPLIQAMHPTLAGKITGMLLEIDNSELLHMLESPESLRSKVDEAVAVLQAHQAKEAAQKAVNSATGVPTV
Yeast UUG start – modulators of yeast start codon fidelity, primary screen, whole organism, S. cerevisiae, single point, plate reader; S. cerevisiae UUG-firefly luciferase reporter, luminescence/redox ratio; activity score, % at 18.7 µM; 350,000 tested, 0.13% active; AID 602363, 2012;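 active = replicate mean at a twofold rise or more, about +100% in these data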;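 note: firefly luciferase made from a UUG start codon reports start codon fidelity; reporter light over untreated wells divided by growth signal over untreated wells; some hits fall short of that in this replicate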
MT1-MMP act inh – blockers of MT1-MMP proenzyme processing, primary screen, HT1080 RFP-PRO-GFP cells, GFP/RFP fluorescence; Matrix metalloproteinase-14 (Homo sapiens), P50281; GFP/RFP ratio fluorescence, overnight; percent of plate control window, DMSO zero; GFP/RFP ratio change, % at 20 µM; 360,000 tested, 0.061% active; AID 651647, 2012;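 active = GFP/RFP ratio change of at least 30% with cell ATP level not reduced by more than half and red fluorescence within 50% of control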; note: strong numbers were not always called active
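Assay system – RFP-PRO-GFP reporter HT1080 cells · Compound dosing – single dose of 20 µM compound, 1% DMSO final · Incubation – overnight compound exposure at 37 °C · Measure – GFP/RFP fluorescence ratio · Benchmarks – DMSO wells and RFP-L50D-GFP cells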
CSC inhib – cancer stem cell viability inhibitors, primary screen, luminescence; 300,000 tested, 1.1% active; AID 2717, 2010; inhibition, % at 7.5 µM; cancer stem cell-like cells viability;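 active = mean at 75% or more and at least half the replicates too; inconclusive = mean and replicates disagree; tested in HMLE shEcad cells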;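 note: 0% = median of negative and 100% = median of positive control wells; the first replicate is given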
Rce1 inhib – yeast Rce1p protease inhibitors, primary screen, biochemical, fluorescence, cell-free homogeneous | yeast membranes, quenched prenylated peptide cleavage fluorescence | calls only | 290,000 tested, 0.27% active | AID 2563, 2010;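 active = fall in fluorescence gain of 50% or more versus controls, with final raw signal at or below 3038400; inconclusive = same 50% fall but final raw signal above 3038400; inactive = fall in fluorescence gain under 50%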;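 note: plate controls were neutral control wells for no effect and wells lacking membranes for full effect; tested at 10 µM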
Env fusion inh – inhibitors of HIV-1 Env-driven cell-cell fusion, primary screen, HeLa-JRFL effector, CEM21 target cells, luciferase | inhibition, % at 12.3 µM | 360,000 tested, 1.1% active;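 active = mean replicate inhibition score of at least 50 and every replicate individually at or above 50; inconclusive = only one of the two criteria met; inactive = mean below 50 and not all replicates reaching 50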;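 note: 0% = plate neutral controls and 100% = maraviroc near 300 nM; one replicate is shown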
eIF4H inh – human eIF4H binding inhibitors, primary screen, translation initiation inhibitor project, biochemical, uHTS, fluorescence polarization; Eukaryotic translation initiation factor 4H (Homo sapiens), Q15056; eIF4H fluorescence polarization binding assay; inhibition, % at 35 µM; 290,000 tested, 0.94% active;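 active = 50% or more with normal probe brightness, or confirmed in later tests; inconclusive = above 50% with abnormal brightness, or retests that disagree; inactive = below 50% or failed in later tests; about a fifth of its hits are not listed in these tables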;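 note: calls also rest on retests at 20 µM and on dose response follow-up; 0% = protein and probe with vehicle and 100% = probe without protein; strong numbers were not always called active; many hits fall short of the cut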
MT1-MMP act inh RFP – second read-out of MT1-MMP act inh, no call of its own (marks repeat the call); RFP signal change, %; measured here: RFP expression control read;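 0 = vehicle wells; hits needed this value within 50% of zero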
Numbers without * were called inactive; i = inactive; ? = inconclusive; . = not tested or not shown; & = joins results of further samples; ! = not confirmed by another sample.

Results follow in this order: PABP polyA inh	Yeast UUG start	MT1-MMP act inh	MT1-MMP act inh RFP	CSC inhib	Rce1 inhib	Env fusion inh	eIF4H inh
CCn1c2ccccc2c2cc(NC(=O)COC(=O)c3ccccc3F)ccc21
    -6	-20	1	0	-3	i	.	-10
COc1ccccc1NC(=O)c1ccc(S(=O)(=O)N(C)c2ccccc2)cc1
    .	2	4	-8	.	.	4	.
COC(=O)Cn1cc([N+](=O)[O-])nc1C
    4	.	1	7	-6	i	-4	-6
CCn1c(=S)[nH]c2cc(C(=O)O)ccc21
    4	.	.	.	-13	i	.	-1
CC(C)CNc1nc(Oc2ccc(=O)[nH]n2)nc(N2CCOCC2)n1
    0	.	1	-1	-4	i	14	8
CCOc1cc(/C=C2\C(=O)N(c3cccc(C(=O)O)c3)N=C2C(F)(F)F)ccc1OCC(=O)Nc1ccccc1OC
    8	.	.	.	.	i	.	9
Cc1cc(C)c2c(c1)C(=O)/C(=C/c1ccc(C(=O)O)cc1)CC2
    9	-10	1	1	2	i	8	-9
COc1cc(O)c(C(CCN2CCCC(C)C2)c2ccc3c(c2)OCO3)c(OC)c1 (stereo unspecified)
    -8	-6	3	4	16	i	-19	-8
CC(C)CC(NC(=O)C1CCCCC1)C(=O)N1CCN(c2ccccn2)CC1 (stereo unspecified)
    -7	33	7	-2	-16	i	-5	-8
Cc1cc(NC(=O)CSc2nc(C3CC3)nc3sc(C)c(C)c23)no1
    2	-16	-4	-9	.	i	11	0
Nc1nnc(CCOc2ccc(Cl)cc2)s1
    4	-17	-2	-5	.	i	.	1
COc1ccc(-c2cc(C(=O)Nc3c(C)n(C)n(-c4ccccc4)c3=O)no2)cc1
    -13	.	-2	-1	-16	i	2	-1
CC(=O)Nc1nc(SCc2cccc3ccccc23)n[nH]1
    0	29	2	2	-4	i	-5	0
N/C(=N\NC(=O)c1cccs1)c1cc2cc(Cl)ccc2oc1=O
    14	-25	-4	-5	-15	i	-5	-5
NC(=O)c1ccc(NC(=O)CN2CCN(S(=O)(=O)c3ccc4ccccc4c3)CC2)cc1
    .	-7	-4	-1	.	.	-18	.
Cc1ccc2c(c1)C(=O)C(=O)N2CC(=O)Nc1ccccc1NC(=O)c1ccccn1
    2	-16	-1	5	.	i	4	-2
COC(=O)CSC(C(=O)Nc1ccc(C)c(C)c1)c1ccccc1 (stereo unspecified)
    -11	-10	-3	-7	-18	i	-66	-5
O=C(CSc1nnc(NC(=O)C2CC2)s1)NCc1ccco1
    -6	-22	7	4	.	i	-5	5
COCCN(CC(=O)Nc1cccc(C)c1)S(=O)(=O)c1ccc(S(=O)(=O)N2CCCC2)cc1
    -2	17	0	-3	.	i	.	-1
N#Cc1c(NC(=O)c2ccc(Cn3cc(Br)cn3)o2)sc2c1CCCCCC2
    -9	0	1	-18	.	i	15	-12
O=C(NC(C(=O)N/N=C/c1cc([N+](=O)[O-])ccc1O)c1n[nH]c(=O)c2ccccc12)c1ccccc1 (stereo unspecified)
    15	.	3	-1	.	i	-5	25
CCOC(=O)C1=C(C)N(CCC(=O)O)C(=O)NC1c1ccccc1Cl (stereo unspecified)
    .	-8	5	5	-13	i	12	.
COc1ccc(C(=O)COC(=O)c2cc([N+](=O)[O-])ccc2N2CCOCC2)c(OC)c1
    .	-13	-1	-1	7	i	11	.
O=C1NCCN1Cc1cccc(Cl)c1
    -3	-10	-2	2	-10	i	-30	-5
CN1C=CC=C/C1=C1/SC(=S)N(Cc2ccccc2)C1=O
    4	.	6	0	-2	i	5	-4
CCN(CC)c1ccc(/C=N/NC(=O)c2cccc(S(=O)(=O)N3CCOCC3)c2)c(O)c1
    -2	-8	2	-19	110*	i	15	5
O=C(CCc1ccccc1)N/N=C\C1CC=CCC1 (stereo unspecified)
    8	-6	4	5	-6	.	-16	-2
C=CCOC(=O)C1=C[C@H](c2cn(C(C)=O)c3ccccc23)C[C@H](OCCCCO)O1
    7	10	-4	-1	4	i	5	10
CCNC(=O)NC(=O)COC(=O)CCCSc1nc2ccccc2s1
    -4	-34	-5	2	2	i	1	3
C=CCCCN(Cc1ccccc1)S(=O)(=O)c1ccccc1Br
    1	-7	0	3	39	i	10	-8
CCc1nnc(NC(=O)CSc2nc(C)cs2)s1
    0	-25	2	1	4	i	8	0
COc1ccc(NC(=O)C(F)(OC)C(F)(F)F)c(OC)c1 (stereo unspecified)
    -5	30	6	4	13	i	.	3
CC1=C(C(=O)N2CCOCC2)C(c2cc(C)ccc2C)NC(=S)N1 (stereo unspecified)
    22	-14	-1	1	.	i	5	5
O=C(NCCS(=O)(=O)N1CCN(c2ccccc2)CC1)C1CC(=O)N(c2ccccc2)C1 (stereo unspecified)
    0	-26	5	0	0	i	5	-2
O=C(N/N=C/c1cccnc1)c1ccc(NC(=O)c2cccc(Cl)c2)cc1
    -45	-8	8	4	-6	.	14	-60
O=C(Nc1ccncc1)c1ccc(C(=O)Nc2ccncc2)cc1
    -10	.	1	-8	-19	i	-4	-7
O=C(COc1ccc(Cl)cc1Cl)N/N=C/c1cccnc1
    -1	-3	-2	-2	-7	i	-3	-1
Cc1c(C(=O)Nc2nonc2-c2ccc(F)cc2)oc2ccc(F)cc12
    -4	-16	-8	-15	?	i	22	-2
Cc1coc2c(C)c3oc(=O)c(CCC(=O)NCc4ccccn4)c(C)c3cc12
    8	-24	3	-3	-5	i	.	1
CCOC(=O)c1c(NC(=O)COC(=O)c2cnc(C)cn2)sc(C(=O)N(C)C)c1C
    .	.	-1	1	-14	i	4	.
c1ccc(Nc2c3c(nc4ccccc24)CCC3)cc1
    3	.	4	2	-7	i	7	5
Cc1ccc(NC(=O)c2ccc([N+](=O)[O-])o2)cc1C
    -12	.	1	-22	-14	i	-5	-9
CN(C)c1ccc(-c2ccnc3c2CC(C)(C(=O)Nc2ccc(Cl)cc2)O3)cc1 (stereo unspecified)
    .	-11	-2	-2	.	.	7	.
O=c1c(-c2ccc(O)cc2O)coc2cc(O)cc(O)c12
    24	-12	0	-1	2	i	.	24
CCOCCCn1c(SCC(=O)Nc2cccc(S(=O)(=O)NC3=NCCCCC3)c2)nc2ccccc2c1=O
    8	-11	0	0	6	i	0	1
CCOC(=O)CN1CCC(C2(c3cc4ccccc4[nH]3)OCCO2)CC1
    .	-24	0	-1	.	.	8	.
CC(/C=C/c1ccccc1)=N/NC(=O)CNC(=O)c1ccccc1F
    -13	.	1	0	-7	i	-5	-9
C=CCCC(=O)N1CCC(n2nccc2NC(=O)c2ccccc2C)CC1
    -2	-9	-3	-1	-15	.	-9	-5
CCOC(=O)Cn1c(=O)oc2cc(S(=O)(=O)N(C)c3ccc(OC)cc3)ccc21
    -6	90	1	-1	-7	i	-5	-6
O=c1[nH]c(SCc2ccccc2Cl)nc2c1cnn2-c1ccccc1
    2	-4	4	-4	-1	i	31	0
O=C(O)CCC(=O)NC(c1ccccc1)c1ccccc1
    ?	.	-3	-2	-21	i	-1	?
CC(C)c1nnc(NC(=O)c2ccc3c(c2)OCO3)s1
    1	.	2	5	2	i	26	6
C#CCSc1nc(-c2ccccc2)cc(C(F)(F)F)c1C#N
    -13	-13	-19	-5	-12	i	14	1
CCCc1nc2ccccc2c(=O)n1/N=C/c1ccc(O)c(O)c1
    1	15	1	-2	-2	i	.	-1
CCOc1ccc(NC(=O)C2CCC(N3C(=O)C4CC=CCC4C3=O)CC2)cc1 (stereo unspecified)
    1	10	-1	2	5	i	.	-9
O=C(CCc1ccc(S(=O)(=O)N2CCOCC2)cc1)NCCCN1CCCC1=O
    -2	-14	3	1	16	i	3	-3
Cn1c(-c2ccc3c(c2)OCO3)cnc1NCc1cccc(O)c1
    -2	.	4	2	13	i	10	-2
CCOc1ccc(CCNC(=O)c2ccc(C)c(NC3=NC4CS(=O)(=O)CC4S3)c2)cc1 (stereo unspecified)
    .	-15	4	1	-16	i	-1	.
CCN(CC)S(=O)(=O)c1cccc(NC(=O)COC(=O)CNC(=O)c2cccc(F)c2)c1
    4	.	7	8	5	i	19	2
CN(C)CCNC(=S)Nc1ccc(-c2nc3ccccc3[nH]2)cc1
    1	-28	5	1	-18	i	-19	7

Full records, quoted from the list. Order of screens: PABP polyA inh	Yeast UUG start	MT1-MMP act inh	MT1-MMP act inh RFP	CSC inhib	Rce1 inhib	Env fusion inh	eIF4H inh
Cc1coc2c(C)c3oc(=O)c(CCC(=O)NCc4ccccn4)c(C)c3cc12 reads 8	-24	3	-3	-5	i	.	1
CN(C)CCNC(=S)Nc1ccc(-c2nc3ccccc3[nH]2)cc1 reads 1	-28	5	1	-18	i	-19	7

New compounds follow:
Results follow in this order: PABP polyA inh	Yeast UUG start	MT1-MMP act inh	MT1-MMP act inh RFP	CSC inhib	Rce1 inhib	Env fusion inh	eIF4H inh
CCCNC(=O)COC(=O)/C=C/c1ccc2c(c1)OCO2
    0	.	0	3	1	i	.	4
NS(=O)(=O)c1ccc(N2C(=O)C3CC=CCC3C2=O)cc1 (stereo unspecified)
    -10	.	2	5	-8	i	3	5
CCc1nc2ccc(C(=O)Nc3cc(-c4ccccc4)ccc3OC)cn2c1N(CCN(C)C)CC1CC1
    .	-2	-11	-10	.	.	-20	.
CCc1ccccc1N(C)C(=O)CCc1nc(-c2ccc(C)cc2)no1
    -2	-39	3	-7	2	i	.	-2
Cc1ccccc1N=Cc1cc2c(cc1O)OC(N)=C(C#N)C2c1ccccc1 (stereo unspecified)
    13	.	.	.	21	i	-28	21
CC(O)(c1cccnc1)c1nc(-c2ccc3c(c2)OCO3)cs1 (stereo unspecified)
    .	-22	-4	-12	.	.	15	.
Cc1ccc(NC(=O)[C@@H]2CCCN2S(=O)(=O)c2ccc(Cl)cc2)cc1
    .	-10	5	-3	-11	.	5	.
Cc1cc(Br)ccc1N=C1C(=O)Nc2ccccc21
    -5	8	-8	-3	33	i	11	-5
O=C(NCC1CC1)C1(C(F)(F)F)CC(CCCO)CCCO1 (stereo unspecified)
    .	11	5	4	2	i	-8	.
C[C@@H]1CN([C@H](C)CO)S(=O)(=O)c2ccc(C#Cc3cccc(F)c3)cc2O[C@@H]1CN(C)C(=O)CN1CCOCC1
    .	41&14&20	-6	-2	.	.	81*!	.
O=C(COC(=O)c1ccc(C(F)(F)F)cc1)Nc1cccc(S(=O)(=O)N2CCCCC2)c1
    .	-8	2	0	.	.	3	.
O=C(c1ccncc1)N1CCCC(N2CCN(c3cccc(C(F)(F)F)c3)CC2)C1 (stereo unspecified)
    -2	-18	-4	-1	34	i	16	-10
O=S1(=O)[C@H]2CC3O[C@]2(C[C@@H]3c2ccc(F)cc2)CN1Cc1ccc(Cl)cc1
    0	-5	5	0	0	i	17	-3
COc1ccc(OCC(=O)N/N=C2\CCCc3ccccc32)cc1
    21	.	0	6	-6	i	.	-3
CCCN(C(=O)c1cn(C)c(=O)c2ccccc12)c1ccccc1C
    -6	-12	-2	-2	-12	i	9	-2
CC1=CC(=O)C=CC1(C)C(Cl)Cl (stereo unspecified)
    8	3	0	3	-8	i	.	0
